Screens (PubChem)
KCNQ2 pot = potentiators of rat KCNQ2 potassium channel. O88943. CHO-K1 KCNQ2, FluxOR thallium flux fluorescence; hits give high values. B-score at 10 µM. actives 0.54% (n = 310,000);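 active = fluorescence ratio B-score at least 3 SD of library B-scores, with initial fluorescence B-score within 3 SD, cut at about 5.3 in these data; same plate scores as AID 2156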;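 also: B-score of peak minus minimum over baseline fluorescence ratio after K+ and Tl+ stimulus; positive B-score means potentiation of KCNQ2 with more thallium influx and brighter signal; only the inactives scoring about 0 or higher are listed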
Target sequence (O88943 whole entry, looked up): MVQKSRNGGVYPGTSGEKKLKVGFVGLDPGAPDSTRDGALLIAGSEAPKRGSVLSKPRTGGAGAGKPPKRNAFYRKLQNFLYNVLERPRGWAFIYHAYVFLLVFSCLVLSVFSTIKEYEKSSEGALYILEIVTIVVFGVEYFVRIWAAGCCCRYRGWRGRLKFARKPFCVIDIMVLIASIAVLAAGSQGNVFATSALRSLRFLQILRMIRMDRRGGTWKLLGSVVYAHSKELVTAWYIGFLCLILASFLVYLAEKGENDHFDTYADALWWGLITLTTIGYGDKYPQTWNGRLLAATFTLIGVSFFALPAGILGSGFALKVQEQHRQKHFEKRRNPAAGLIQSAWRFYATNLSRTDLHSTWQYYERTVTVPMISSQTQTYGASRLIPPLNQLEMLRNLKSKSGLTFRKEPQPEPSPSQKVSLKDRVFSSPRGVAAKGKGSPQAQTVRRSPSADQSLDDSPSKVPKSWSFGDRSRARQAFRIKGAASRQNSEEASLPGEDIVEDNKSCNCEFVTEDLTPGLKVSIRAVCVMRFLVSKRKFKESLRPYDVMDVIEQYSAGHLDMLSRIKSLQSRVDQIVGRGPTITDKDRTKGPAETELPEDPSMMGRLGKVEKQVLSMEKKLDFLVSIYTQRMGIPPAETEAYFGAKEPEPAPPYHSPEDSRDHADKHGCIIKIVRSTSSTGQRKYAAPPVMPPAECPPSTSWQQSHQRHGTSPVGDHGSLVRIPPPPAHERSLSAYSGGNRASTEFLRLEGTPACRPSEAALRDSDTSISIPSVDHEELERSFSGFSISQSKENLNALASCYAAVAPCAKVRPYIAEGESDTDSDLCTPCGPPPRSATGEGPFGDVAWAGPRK
KCNQ2 pot baseline = second read-out of KCNQ2 pot, no call of its own (marks repeat the call); B-score; compound at 10 µM; measured here: initial fluorescence intensity artifact check;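 brightness before thallium and not channel activity; 0 = typical well and far values either way flag optical interference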
Starred values were filed as active, the others as inactive. This is a subset; the hit share may differ from the screen's.

SMILES	KCNQ2 pot	KCNQ2 pot baseline
NC(=O)c1ccccc1NC(=S)NC(=O)CCc1ccccc1	0.16	0.62
Cc1oc(-c2ccccc2)nc1CSc1nc2c(c(=O)[nH]1)CCC2	1.42	0.48
Cc1cccc(NC(=O)c2ccc(S(=O)(=O)N(C)CC3CCCO3)cc2)c1C (stereo not given)	0.9	0.71
COc1ccc2[nH]cc(CCNS(=O)(=O)c3ccccc3)c2c1	0.51	0.06
C/C=C(\C)C(=O)N[C@@H](C)CN1C2=NC[C@H](C(C)C)N2C[C@H]1Cc1ccc(OC)cc1	1.55	-0.71
C=CCOc1ccccc1CN1CCC(n2nccc2NC(=O)c2ccccc2)CC1	0.02	-2.17
CCOc1ccc(NC(=O)Nc2ccc3nccnc3c2)cc1	0.58	-0.13
COC(=O)c1ccc(SCC(=O)NC2CCCC2)c([N+](=O)[O-])c1	0.85	0.13
CCOCC(=O)Nc1cc(C(=O)OC)cc(C(=O)OC)c1	0.25	1.07
CCn1c(=O)cc(SCC(=O)NCc2cccnc2)c2ccccc21	0.49	-3.12

Among those listed so far, 2 contain an aryl methoxy group:
SMILES	KCNQ2 pot	KCNQ2 pot baseline
COc1ccc2[nH]cc(CCNS(=O)(=O)c3ccccc3)c2c1	0.51	0.06
C/C=C(\C)C(=O)N[C@@H](C)CN1C2=NC[C@H](C(C)C)N2C[C@H]1Cc1ccc(OC)cc1	1.55	-0.71

More entries
SMILES	KCNQ2 pot	KCNQ2 pot baseline
COc1ccc(N=C2SCC(=O)N2c2ccc(OC)cc2)cc1	0.65	-1.37
FC(F)(F)c1cccc(NC(=S)N(CCCN2CCCC2)Cc2cccn2Cc2ccc(Cl)cc2)c1	0.03	0.72
Cc1ccc(-c2csc3ncnc(-n4nnc5ccccc54)c23)cc1C	0.07	-0.91
Cc1ccc(-c2nnc(SCC(=O)NCC3CCCO3)n2C)cc1 (stereo not given)	1.79	-1.08
O=C(CNC(=O)c1ccc([N+](=O)[O-])cc1)N/N=C\c1ccc(OC(=O)c2ccccc2)cc1	0.33	-0.01
COc1ccc(CC(NC(C)=O)C(=O)NC2CCN(c3c(Cc4ccccc4)c(C)nc4ncnn34)CC2)cc1OC (stereo not given)	0.05	-1.59
CCc1ccc(Oc2cc(C)nc(N)n2)cc1	0.95	-0.3
Cc1ccc(Cl)cc1NC1=NC(=S)N(C(C)C)C12CCCCC2	0.86	-1.15
COc1cccc(-n2c(Cc3cc(=O)[nH]c(=O)[nH]3)nnc2SCc2cccnc2)c1	0.05	-1.29
COC(=O)c1cc(CNC(=O)c2sccc2-c2ccccc2)ccc1OC	1.36	0

Record cards, from the list above. Screens in order: KCNQ2 pot	KCNQ2 pot baseline
COc1ccc(N=C2SCC(=O)N2c2ccc(OC)cc2)cc1 as listed: 0.65	-1.37
FC(F)(F)c1cccc(NC(=S)N(CCCN2CCCC2)Cc2cccn2Cc2ccc(Cl)cc2)c1 as listed: 0.03	0.72
COc1cccc(-n2c(Cc3cc(=O)[nH]c(=O)[nH]3)nnc2SCc2cccnc2)c1 as listed: 0.05	-1.29
COc1ccc(CC(NC(C)=O)C(=O)NC2CCN(c3c(Cc4ccccc4)c(C)nc4ncnn34)CC2)cc1OC (stereo not given) as listed: 0.05	-1.59
Cc1ccc(-c2csc3ncnc(-n4nnc5ccccc54)c23)cc1C as listed: 0.07	-0.91

Next records:
SMILES	KCNQ2 pot	KCNQ2 pot baseline
Cc1ccc(-n2nc3c(=O)n(CC(=O)NC4CCCCC4)nc(C)c3c2C)cc1	0.52	0.33
Nc1nc(-c2ccco2)nn1C(=O)c1ccc(F)cc1	1.09	-1.27
COC(=O)[C@@H]1C[C@@]2(O)[C@H](O)[C@H](O)[C@H](O)C[C@H]2N1Cc1cccc2ccccc12	0.74	-0.46
CC1CCCN(S(=O)(=O)c2ccc(S(=O)(=O)N3CCCN(Cc4ccccc4)C3)cc2)C1 (stereo not given)	0.43	-1.08
Cc1ccc(S(=O)(=O)NNC(=O)Nc2ccc([N+](=O)[O-])cc2)c(C)c1	0.06	-0.58
Cc1nc(C)n(C(C)CNC(=O)c2cccc(Br)c2)n1 (stereo not given)	0.12	0.33
O=C(Nc1ccc(NC(=O)c2ccco2)cc1)c1ccc2c(c1)OCO2	0.89	-0.05
CN1CCN(c2ncnc3c2[nH]c2ccc(F)cc23)CC1	2.31	1.02
COC(=O)c1cccc(C(=O)N2CCCC(C(=O)c3cc(F)ccc3F)C2)c1 (stereo not given)	0.68	0.35
N#CC1=C(N)N(c2ccc(Cl)c(Cl)c2)C(=O)C1	0.7	-0.18
CC(C)OC(=O)C1C(=O)CC(C)(O)C(C(=O)OC(C)C)C1c1ccc(F)cc1 (stereo not given)	0.39	-0.29
COc1ccc(Cl)cc1NS(=O)(=O)c1ccc2c(c1)NC(=O)CCS2	0.72	-0.9
O=C(Nc1cc(Cl)ccc1O)C1CC(c2c(F)cccc2Cl)=NO1 (stereo not given)	0.74	-2.3
CC(C)c1cc(C(=O)NNC(=S)NC2CCCCC2)cs1	0.6	0.41
COC(=O)c1cc(C(=O)N2CCN(c3ccccc3OC)CC2)cc([N+](=O)[O-])c1	0.07	-0.28
CC(C)C(=O)Nc1nnc(SCC(=O)NCc2ccco2)s1	1.35	0.35
CCOC(=O)c1cn(CC)c2cc3c(cc2c1=O)OCO3	0.75	1.06
COc1ccc(OC)c2sc(NC(=O)CCSc3ccccc3)nc12	0.88	0.78
Cc1ccc2cc(C=O)c(N3CCOCC3)nc2c1C	5.19	-0.63
CCc1nc(Nc2ccccc2O)c2oc3ccccc3c2n1	0.5	-0.51
CCOC(=O)C(NC(=O)c1ccc(OC)cc1)(N1CCOCC1)C(F)(F)F (stereo not given)	0.95	-2.06
CCCN1CCC(=NNc2ccc(S(N)(=O)=O)cc2[N+](=O)[O-])CC1	1.22	0.39
CCOC(=O)CSc1nc2c(c(=O)[nH]c(=O)n2C)n1CCc1ccccc1	0.51	2.31
CC1(C(=O)O)CCC(C(=O)NNC(=O)c2ccccc2Cl)C1(C)C (stereo not given)	4.13	-0.65
CC(=C\C(=O)O)/C(=C/c1ccc(C)o1)C(=O)O	0.49	-0.04
COCCn1cnc2c1c(=O)n(CC(=O)Nc1cc(C)on1)c(=O)n2Cc1ccccc1	0.56	-0.41
CCCSc1nc(SCC(=O)NCc2ccccc2)c2c3c(sc2n1)COC(C)(C)C3	0.87	-0.67
C=CCn1c(SC2CCOC2=O)nc2sc(CC)cc2c1=O (stereo not given)	0.65	0.8
COCC(=O)Nc1cc([N+](=O)[O-])ccc1OC	0.91	0.62
COc1cc(CC(NC(C)=O)C(=O)NC2CCN(C(=O)c3ccc(C)cc3)CC2)cc(OC)c1 (stereo not given)	0.76	0.25
Cc1ccccc1C(=O)NNC(=O)CN1C(=O)c2ccccc2C1=O	0.31	1.43
O=C(NCCS(=O)(=O)N1CCN(c2ccc(F)cc2)CC1)c1ccco1	0.58	-0.7
CCCOP(=O)(c1ccccc1)c1ccccc1	0.68	-1.4
CC(C)(C)c1ccc(S(=O)(=O)N2CCSC2)cc1	1.75	-2.33
CCN(CC)S(=O)(=O)c1cc(C(=O)N=c2sccn2C)ccc1OC	1.2	0.59
Cc1cc(C)n(CCSCC(=O)O)n1	1.04	-0.33
COc1ccc(-c2[nH]ncc2CNCC(C)(C)N2CCOCC2)cc1F	1.88	0.16
CCCn1nnc(NC(=O)c2ccco2)n1	0.09	-1.19
COc1ccc(C(C)=O)cc1CSc1nc2cc(C(=O)O)ccc2c(=O)n1Cc1ccccc1	1.15	0.19
CC(=O)c1ccc(OCC(=O)NC(=O)NC2CCCCC2)cc1	0.03	0.87

An excerpt from above in order of the KCNQ2 pot baseline value, descending:
SMILES	KCNQ2 pot	KCNQ2 pot baseline
Cc1ccccc1C(=O)NNC(=O)CN1C(=O)c2ccccc2C1=O	0.31	1.43
CCN(CC)S(=O)(=O)c1cc(C(=O)N=c2sccn2C)ccc1OC	1.2	0.59
CCCn1nnc(NC(=O)c2ccco2)n1	0.09	-1.19
CC(C)(C)c1ccc(S(=O)(=O)N2CCSC2)cc1	1.75	-2.33

Going on with the list.
SMILES	KCNQ2 pot	KCNQ2 pot baseline
O=C(NCc1nnc(SCc2ccccc2)n1-c1ccc(F)cc1)C12CC3CC(CC(C3)C1)C2	0.68	-1.84
CC(C)NC(=O)C1CCN(c2ccc(S(=O)(=O)N3CCOCC3)cc2Cl)CC1	1.32	-2.25
Cc1ccccc1-n1ncc2c1CC(C)(C)CC2NC(=O)CN1CCCC1=O (stereo not given)	0.73	-2.03
CCC(C)[C@H](NC(=O)CCn1nnc2ccccc2c1=O)C(=O)O (stereo not given in full)	0.46	1.29
COc1ccc(-n2c(C)c(C)c3c(NCCCN(C)C)ncnc32)cc1	0.14	-0.74
CN(C1CCCC1)C1CCN(C(=S)Nc2cc(F)cc(F)c2)CC1	1.53	-0.57
COc1ccc(CSc2nnc(-c3ccncc3)n2N)cc1	0.58	1
CCN(CCCNC(=O)c1c(C)cc(=O)oc1C)c1cccc(C)c1	0.62	0.28
O=C(/C(=N\Nc1ccccc1)Sc1nnnn1-c1ccccc1)c1ccccc1	0.04	0.69
CCOc1ccc(CNC(=O)c2cccc(NC(=O)C3=C(C)OCCS3)c2)cc1	0.19	2.81
COc1ccccc1-n1c(=O)c2c3c(sc2n2c(SC(C)C)nnc12)CCC3	0.62	-1.95
COc1cc(/C=N/NC(=O)c2ccc(COc3ccccc3Cl)o2)cc(Br)c1O	1.95	-0.85
O=C(C[n+]1cccc(/C=N/O)c1)N1CCCCCC1	0.02	0.24
O=C(CN1C(=O)NC(CCc2ccccc2)C1=O)NC1CC1 (stereo not given)	1.62	-1.39
CC1C/C(=N/NC(=O)c2cccc(F)c2)c2ccc(O)cc2C1 (stereo not given)	0.53	-2.09
COc1ccc(-c2nc(C)c(C(C)=O)n2O)cc1	0.86	0.66
CCOC(=O)N1CCN(C(=O)c2ccc3c(=O)n4c(nc3c2)CCCCC4)CC1	0.7	0.5
CCOC(=O)Nc1cc(C(=O)OC)ccc1C	0.87	-0.07
CN(C(=O)c1ccc(Cl)c(S(=O)(=O)N2CCOCC2)c1)c1ccccc1C(=O)O	2.06	-0.57
CCN(CC)S(=O)(=O)c1cc(C(=O)Nc2cc(C)on2)c(Cl)cc1Cl	0.04	-1.4
O=C(O)c1ccccc1NC(=O)c1cc2ccccc2oc1=O	2.08	-0.05
COc1ccc(OC)c(S(=O)(=O)Nc2ccccc2O)c1	0.04	1.17
Cc1ccccc1CS(=O)(=O)c1cn(CC(=O)N2CCOCC2)c2ccccc12	0.04	-1.25
CN(C)NC1CC(=O)N(c2ccccc2)C1=O (stereo not given)	1.45	-2.36
CC(=O)c1cccc(N(CC(=O)Nc2cc(C)cc(C)c2)S(C)(=O)=O)c1	0.07	-0.05
N=c1sccn1CC(=O)Nc1ccc(Cl)cc1[N+](=O)[O-]	0.25	1.2
CSc1ncccc1C(=O)OCC(=O)Nc1ccc(S(=O)(=O)N2CCCC2)cc1	0.37	-0.53
CC(C)CNC(=O)COC(=O)c1ccc2c(c1)C(=O)N(Cc1ccco1)C2=O	1.1	3.44
CCn1c(-c2csc3c2CCC(C)C3)n[nH]c1=S (stereo not given)	1.23	-2.2
CCC(C)C(=O)Nc1cc(C(=O)OC)cc(C(=O)OC)c1 (stereo not given)	0.88	-0.98
Cc1c(NC(=O)Nc2ccc(Cl)cc2Cl)c(=O)n(-c2ccccc2)n1C	1.56	0.35
O=C(NC1CCCCCCC1)c1cc(F)c(F)cc1Cl	0.87	-0.51
CC(O)CNc1nc2c(c(=O)n(C)c(=O)n2C)n1Cc1cccc(C(F)(F)F)c1 (stereo not given)	0.01	1.31
COc1cccc(CNCC2CCCO2)c1 (stereo not given)	0.71	0.51
COC(=O)[C@@H]1C[C@@]2(O)[C@@H](O)[C@@H](O)[C@@H](O)C[C@H]2N1Cc1ccc(C)s1	0.52	-1.58
CCOC(=O)N1CCN(C(=O)C2CCN(S(=O)(=O)c3ccccc3)CC2)CC1	0.26	-1.84
CCOC(=O)N/N=C1\CC(C)CC(C)(C)C1 (stereo not given)	0.19	2.04
O=C(COc1ccc([N+](=O)[O-])cc1)Nc1ccc2[nH]c(=O)[nH]c2c1	0.71	-2.01
CCN(C(=S)NC(=O)c1ccccc1Br)C1CCCCC1	11.7*	-0.7*
Cc1c(NC2=NC3(CCCCC3)Cc3ccccc32)c(=O)n(-c2ccccc2)n1C	0.57	0.85
Cc1ccc(-n2c(SCC(=O)N(C)C3CCS(=O)(=O)C3)nc3ccccc3c2=O)cc1 (stereo not given)	2.12	0.53
Cc1ccc(-n2nc3c(c2NC(=O)CC(C)C)CS(=O)(=O)C3)cc1	0.97	0.03
Cc1cc(C)cc(C(=O)OCC(=O)NCC(F)(F)F)c1	0.28	1
O=C(NCc1ccc(Cl)cc1)C1CCCN1C(=O)Nc1ccccc1 (stereo not given)	0.43	-0.32
Cc1ccc(NC(=O)CCC(=O)OC(C)C(=O)c2ccccc2)cc1 (stereo not given)	1.37	0.77
COc1ccc(NC(=O)CN(c2ccccc2)S(=O)(=O)N(C)C)cc1OC	1.04	-0.03
Cc1ccc(C(=O)OCC(=O)NC(=O)c2cccn2C)cc1	1.58	0.06
O=C(CNc1cc(S(=O)(=O)N2CCCC2)ccc1OCC(F)(F)F)Nc1ccc(SC(F)F)cc1	0.27	1.05
O=C1N(Cc2ccccc2)CCCC12CCCN(Cc1ccccc1)C2=O	0.03	0.07
Oc1ccccc1-c1csc(-c2ccccc2)n1	2.78	-1.06
Next part
SMILES	KCNQ2 pot	KCNQ2 pot baseline
CCn1c(SCC(=O)N2CCOCC2)nnc1-c1cccs1	0.75	-0.57
Nc1nnc(-c2ccccc2)c(-c2ccccc2)n1	0.28	-1.03
Cc1ccc(C(=O)OCC(=O)Nc2sc3c(c2C#N)CCCC3)cc1NC(=O)c1ccco1	0.67	-0.53
COc1ccccc1N(C)S(=O)(=O)c1ccc(C(=O)O)cc1	0.65	-0.34
COc1ccc(NC(=O)CS(=O)(=O)c2ccccc2)cc1	0.96	-0.49
